Screens deposited in PubChem by National Center for Advancing Translational Sciences (NCATS).
HPGD inh – HPGD (human) dehydrogenase inhibition; purified HPGD, NADH fluorescence kinetic, PGE2 substrate; Potency, µM, without a hit: top-dose activity change, negative = inhibition, actives largely listed as inhibitors; actives 4.3% (n = 150,000); active = well fitted inhibition curve with a large enough effect (not every such curve was filed as active); inconclusive = small, poorly fitted or top-dose-only effect, or another doubt; inactive = no such curve, though single readings can be large or run the other way;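 also: top concentration of the series not given in the record; plate controls included wells without enzyme; inactives centre near -10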
Target sequence (P15428 whole entry, looked up): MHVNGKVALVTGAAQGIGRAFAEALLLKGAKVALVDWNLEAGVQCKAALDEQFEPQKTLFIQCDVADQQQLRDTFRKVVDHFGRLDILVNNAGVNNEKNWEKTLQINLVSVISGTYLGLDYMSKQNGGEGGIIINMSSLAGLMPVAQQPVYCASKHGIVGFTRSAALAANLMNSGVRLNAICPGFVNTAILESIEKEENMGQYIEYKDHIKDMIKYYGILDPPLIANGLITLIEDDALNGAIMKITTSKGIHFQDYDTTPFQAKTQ
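20 nM HPGD preincubated 15 min at room temperature with compound in 50 mM Tris-HCl pH 8, 0.01% Tween 20. Started with 1 mM NAD+ and 30 uM prostaglandin E2; NADH fluorescence (360/450 nm) read 5 times over 30-s intervals, last minus first.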
An asterisk follows results filed as active; ? = inconclusive; & = joins results of further samples. % is scaled to controls: 0 for no effect and ±100 for the full control effect; potency is read from the fitted curve at half-maximal effect.

SMILES	HPGD inh
Cc1ccc(C2CC(C(F)(F)F)n3ncc(C(=O)NCc4ccco4)c3N2)cc1 (stereo not drawn)	-25%
CN(C)c1cccc(-c2nnc(SCCCC#N)o2)c1	-13%
CCc1cccc(C)c1NC(=O)CSc1nc2ccc(N3C(=O)c4ccccc4C3=O)cc2s1	-10%
C=CCOc1c2ccc(C(=O)NCc3ccc(C)cc3)cc2nn1C	?
CCOC(=O)c1c(C(C)(C)C)oc2ccc(OCC#N)cc12	-15%
O=C(NCc1ccccn1)c1cc(-n2cnnc2)ccc1Cl	-4%
CCCCNC(=S)N(C)/N=C/c1c(F)c(F)c(F)c(F)c1F	0%
COC(=O)N1CCC2(CCCN(C(=O)Nc3cccc(C#N)c3)C2)CC1	-27%
O=C1C=C(c2cccs2)CC(c2cccs2)C1n1cnc([N+](=O)[O-])c1 (stereo not drawn)	-15%
CCOc1ccc(C(=O)Nc2ccccc2-c2ccccc2)cc1Cl	-22%
CC(=O)c1c(C)cc(C)c(CSc2nc(C)cc(=O)[nH]2)c1C	?
Cc1ccc2cc(S(=O)(=O)NCCC(=O)O)ccc2c1	-9%
COc1ccc(N=C2CCCN2CC(N)=O)cc1	2%
O[C@H](C[C@@H]1CCCCN1)c1ccc2c(c1)oc1ccccc12	-1%
CN(C)c1ncc(S(=O)(=O)c2ccccc2)c(-c2ccccc2Cl)n1	-29%
C[C@H]1Cc2c(-c3ccccc3)nc3c(c2CO1)CN(C(=O)c1ccco1)CC3	-2%
O=S(=O)(Nc1nc2ccccc2s1)c1ccc(Br)s1	-13%
CC1OC(OC2C(CO)OC(OC3C(CO)OC(O)C(O)C3O)C(O)C2O)C(O)C(O)C1NC1C=C(CO)C(O)C(O)C1O (stereo not drawn)	-15%
CN(c1ccc(C(=O)NCCSCc2ccco2)cc1)S(C)(=O)=O	?
CCOC(=O)NN1C(=O)c2ccccc2NC1c1ccccc1O (stereo not drawn)	?
COc1ccc(NC(=O)CSc2nnc(-c3ccccc3C)n2N)cc1	?
CCn1c(=NC(=O)c2ccc(N3C(=O)CCC3=O)cc2)sc2c(OC)ccc(OC)c21	?
Cc1ccc(S(=O)(=O)NN=C2CCC(C(C)(C)C)CC2)cc1[N+](=O)[O-] (stereo not drawn)	-8%
CC1(C(=O)NC2CCCC2)CCC(=O)N1Cc1cccs1 (stereo not drawn)	-4%
COc1ccc(-c2csc(N3CCN(C(=O)c4ccccc4)CC3)n2)cc1	-14%
O=c1oc(-c2cccc(Cl)c2)nc2c1cnn2-c1ccccc1	?
Cn1c(CCNC(=O)C(C)(C)C)nc2ccccc21	2%
CC(C)N1C(=O)CCC1C(=O)O (stereo not drawn)	-17%
CCCCc1nc2c(c3c1C[C@H](C)OC3)CN(S(=O)(=O)c1ccc(C#N)cc1)CC2	-4%
O=C(O)C1CCC(=O)N1Cc1ccc(F)cc1 (stereo not drawn)	-5%
Cc1c(N=C/C=C/c2ccccc2)cnn1C	-22%
Cn1c(SCC#N)nnc1-c1ccc2c(c1)OCO2	-5%
COc1cc(S(=O)(=O)NCc2ccccc2)ccc1F	-8%
COc1ccc(OC)c(NC(=O)CSc2nnnn2-c2ccccc2F)c1	-7%
COc1ccc(C(c2nnnn2C(C)(C)C)N2CCN(c3nc4ccccc4s3)CC2)cc1 (stereo not drawn)	-17%
O=C(COC(=O)CCC(=O)c1cccs1)Nc1ncc(Cl)cc1Cl	-15%
CCOc1ccc(-n2nc3ccc(NC(=O)c4ccc5c(c4)OCCO5)cc3n2)cc1	?
O=C(CNC(=O)Cn1ccc2ccccc2c1=O)NCCCN1CCCCCC1	-13%
O=C(Nc1cccc2ccccc12)N1CCN(c2ccc(F)cc2)CC1	-9%
CN(C)CCCn1c(NCc2ccc3c(c2)OCO3)nc2ccccc21	-5%
COC(=O)C1=C(C)N(Cc2ccc(OC)c(OC)c2)C(=O)C1	-5%
Cc1nc(NC(=O)c2cccc(Cl)c2)sc1-c1csc(Nc2cccc(Cl)c2)n1	-5%
O=C1c2ccccc2C(Nc2ccc(F)cc2F)N1CCN1CCOCC1 (stereo not drawn)	2%
CC(=O)OCC1OC(c2ccccc2)C(OC(C)=O)C(OC(C)=O)C1OC(C)=O (stereo not drawn)	-14%
O=[N+]([O-])c1cccc(C2Nc3cccc4cccc(c34)N2)c1	-19%
CCOC(=O)c1ccc(COC(=O)CNC(=O)CNC(=O)c2ccc(OC)cc2)o1	-17%
CCOC(=O)c1c(N)sc(C)c1-c1ccccc1	25µM*
COc1ccc(-n2nnnc2SCC(=O)Nc2nnn(C)n2)cc1	-9%
O=C(NC(=S)NCCc1ccc(Cl)cc1)c1ccco1	-4%
Cc1noc(C)c1S(=O)(=O)N1CCCC(C(=O)Nc2nccs2)C1 (stereo not drawn)	35µM*
CCCc1ccc(/C=C2\C(=O)c3ccccc3C(O)=C2C(=O)OCC)cc1	4.5µM*
COc1cc2c(c(OC)c1OC)C(c1ccc(C)cc1)CC(=O)O2 (stereo not drawn)	-22%
CCOc1ccc(Br)cc1/C=N/NC(=O)c1ccncc1	0%
COC(=O)C1(c2ccccc2)NC(c2cccs2)C2C(=O)N(C)C(=O)C21 (stereo not drawn)	-7%
CCOC(=O)CSC1=NC(=O)CS1	14µM*
COC(=O)CCCC(=O)Nc1ccc(Cl)c(Cl)c1	-13%
CCN1C(=O)C2(C(C#N)=C(N)Oc3n[nH]c(C(C)C)c32)c2ccccc21 (stereo not drawn)	3%
Cc1ccc(Cn2ccc(NC(=O)c3cc(-c4ccc(Cl)cc4)on3)n2)cc1	-11%
O=C(O)CCN1C(=O)/C(=C\c2ccc(-c3nc4ccccc4s3)o2)SC1=S	16µM*
O=C1/C(=C\c2ccco2)SC(=S)N1c1ccc(O)cc1	-12%
(cont.)
SMILES	HPGD inh
c1cncc(-c2csc(NCc3ccco3)n2)c1	14µM*
CCOC(=O)c1c(-c2cccc([N+](=O)[O-])c2)csc1NC(=O)CCCOc1ccccc1OC	?
O=C(Nc1cccc(C(F)(F)F)c1)N1CCN(C(=O)Nc2cccc(C(F)(F)F)c2)CC1	-6%
O=c1c2ccccc2nc2n1CCc1c-2[nH]c2ccccc12	-28%&-29%
CCOC(=O)C1(S(=O)(=O)c2ccccc2)CCN(Cc2ccc(Cl)cc2)CC1	-15%
CO/N=C/NC(=O)c1c(OC)ccnc1Oc1ccc(Cl)cc1	-11%
Cc1cc(C)n(-c2nc3ccccc3[nH]c2=O)n1	?
Cn1c(COc2ccccc2)nnc1SCC(=O)NCc1ccccc1	1%
CCCc1nc2oc3c(NCCN(C)C)ncnc3c2c2c1CCCC2	-16%
Cc1ccc(C(=O)NNC(=O)C2CCN(c3nc(C)cc(C)n3)CC2)cc1	-10%
O=C(CCCN1CCOCC1)c1ccc2c(c1)OCCO2	-15%
Brc1ccc(Oc2ncc(CN3CCN(c4ccccc4)CC3)s2)cc1	-13%
COCc1cc(C)nc(Nc2ccc(C)cc2C)c1C#N	-16%
C=CCn1cnc2c(c1=O)c1nc3ccccc3nc1n2Cc1ccccc1	?
CCOc1nc(N(C)C)nc(-n2nnc(C(C)=O)c2C)n1	-11%
COc1ccc(CC(=O)Nc2cccc(C(=O)Nc3ccccc3C(=O)O)c2)cc1OC	?
Cc1ccc(C)c(C(=O)CC2(O)C(=O)N(C)c3ccccc32)c1 (stereo not drawn)	-12%
Cc1nn(C)c(C)c1S(=O)(=O)N1CCc2ccccc21	-10%
Cc1ccc(C(=O)COC(=O)CCC(=O)NC2CCCCC2)cc1C	-9%
COc1ccc(C2NC(=O)c3ccccc3O2)c(OC)c1OC (stereo not drawn)	-14%

Records listed above marked active in HPGD inh.
SMILES	HPGD inh
CCOC(=O)c1c(N)sc(C)c1-c1ccccc1	25µM*
Cc1noc(C)c1S(=O)(=O)N1CCCC(C(=O)Nc2nccs2)C1 (stereo not drawn)	35µM*
CCCc1ccc(/C=C2\C(=O)c3ccccc3C(O)=C2C(=O)OCC)cc1	4.5µM*
CCOC(=O)CSC1=NC(=O)CS1	14µM*
O=C(O)CCN1C(=O)/C(=C\c2ccc(-c3nc4ccccc4s3)o2)SC1=S	16µM*
c1cncc(-c2csc(NCc3ccco3)n2)c1	14µM*

Carrying on.
SMILES	HPGD inh
O=C(O)C[C@H](Sc1ccccc1)c1ccccc1	-6%
Cn1nc(CC(=O)NC2CCCCCC2)c2ccccc2c1=O	-12%
CC(=O)CS(=O)(=O)c1ccc(Oc2ccc(S(=O)(=O)CC(C)=O)cc2)cc1	-11%
Cc1cc(-c2ccccc2)nc(Oc2cccc(C(F)(F)F)c2)c1S(C)(=O)=O	-22%
CC1CCC(NC(=O)C2CCN(c3cnccn3)CC2)CC1 (stereo not drawn)	-16%
O=C1CN(C(=O)CCCc2c[nH]c3ccccc23)c2ccccc2N1	?
CC1=C(C)CC(C(=O)N2CCN(Cc3ccccc3)CC2)C(C(=O)O)C1 (stereo not drawn)	-6%
COC(=O)CN(n1cnnc1)S(=O)(=O)c1ccc(C)cc1	-4%
COc1ccc(Nc2ncc(C(=O)N3CCN(Cc4ccccc4)CC3)c3ccccc23)cc1	?
O=C(c1cc(-n2cnnc2)ccc1Cl)N1CCN(c2nc(-c3ccccc3)cs2)CC1	-2%
CCn1nc(C)c(NS(=O)(=O)c2ccccc2)c1C	-8%
CCCn1nnnc1NC(=O)COc1ccc(Cl)c(C)c1	-12%
Cc1ccc(N=C2NC(=O)c3cc([N+](=O)[O-])ccc32)cc1	-1%
CCOC(=O)c1cccc(-n2c(C)cc(C=O)c2C)c1	-1%
CC(CCC(=O)O)(c1cc(Br)c(O)c(Br)c1)c1cc(Br)c(O)c(Br)c1	-11%
O=C(NCc1ccc(Cl)cc1)c1cnccn1	?
CCOC(=O)c1[nH]c2cc3c(cc2c1NC(=O)CN1CC(C)CC(C)C1)OCO3 (stereo not drawn)	?
CCOc1ccc(NS(=O)(=O)c2ccc(OCC(=O)N3CCCC3)cc2)cc1	-2%
COc1cccc2c1C(=O)c1c(O)c3c(c(O)c1C2=O)C[C@@](O)(C(C)=O)C[C@@H]3O[C@H]1C[C@H](N)[C@H](O)[C@H](C)O1	-15%&-8%&-1%&-12%
COc1ccc(Cl)cc1N(CC(=O)Nc1ccc2c(c1)OCO2)S(C)(=O)=O	-1%
Cc1cc2c(c(=O)n1CCc1ccccc1)C(c1ccco1)C(C#N)=C(N)O2 (stereo not drawn)	-7%
Cc1cc(C)c(S(=O)(=O)c2c(C)cccc2C)c(Cl)n1	-7%
CCCCC(Nc1ncnc2ccccc12)C(=O)O (stereo not drawn)	-15%
COc1cccc(-c2nnc(SCc3ccccn3)n2C)c1	-18%
COc1ccc(C)cc1NC(=O)C1CC(=O)OC12CCCCC2 (stereo not drawn)	-2%
C=C(C)C1CC=C(C)/C(=N\NC(=O)CNc2ccccc2OC)C1 (stereo not drawn)	-12%
O=S(=O)(Nc1cccc2cccnc12)c1ccc(S(=O)(=O)N2CCCC2)cc1	-6%
Cc1ccccc1NC(=O)N1C2CCCC1CC(NC(=O)C1CC1)C2 (stereo not drawn)	-9%
O=C(CSc1cccc(C(F)(F)F)c1)N1CCN(S(=O)(=O)c2ccccc2)CC1	-4%
CC(C)(C)c1ccc(OCC(=O)NC2CCS(=O)(=O)C2)cc1 (stereo not drawn)	-2%
COc1ccc(NC(C)=O)cc1NC(=O)CSc1nnc(-c2cccnc2)n1C	-2%
COc1ccccc1CC1(C)NC(=O)N(CC(=O)Nc2cc(C)on2)C1=O (stereo not drawn)	-8%
O=C(O)/C=C1\CCCc2ccccc2[C@H]1O	-10%
CCOc1ccc(Nc2nc(C)cc(C)c2C#N)cc1	?
Cc1ccccc1NC(=O)C(=O)N/N=C/c1cccc(Br)c1	-4%
CC1=CCc2c(cc3oc(C)cc(=O)c3c2O)OC1	?
CCOC(=O)C1CCN(C(c2cccc(F)c2)c2sc3nc(C)nn3c2O)CC1 (stereo not drawn)	-4%
Cc1nc2ccccc2n1C1CC(=O)N(N(C)C)C1=O (stereo not drawn)	-3%
CCOCCCNCC(=O)N1CCN(S(=O)(=O)c2ccc(C)cc2)CC1	-8%
CCCc1cc(=O)[nH]c(SCC(=O)N(CC)C2CCS(=O)(=O)C2)n1 (stereo not drawn)	-4%
COc1ccc2c(c1)C=C(C(=O)NCc1ccc(Cl)cc1)CO2	-20%
CCN(CC)CCNc1nc(-c2ccco2)c2c(c1C#N)CC(C)(C)OC2	?
Cc1ccc(CNC(=O)c2nc3nc(C)cc(C)n3n2)cc1	-12%
O=C(NNC(=O)c1ccccc1F)c1cccc(Cl)c1	-5%
CC(C)n1nc(C(=O)Nc2ccccc2N2CCOCC2)c2ccccc2c1=O	-13%
CN(C)CC1CCCCC1OC(=O)c1ccc(Cl)cc1 (stereo not drawn)	4%
COc1ccc(/C=C/C(=O)CC(O)(c2ccccc2)C(F)(F)F)cc1 (stereo not drawn)	-19%
Cc1nn(Cc2ccccc2)c(C)c1C(=O)OCC(=O)c1cc(C)n(CC(F)(F)F)c1C	?
COc1ccc(C)cc1S(=O)(=O)Nc1cccc(Cl)c1Cl	-6%

Among those listed so far, these contain a nitro group on carbon.
SMILES	HPGD inh
O=C1C=C(c2cccs2)CC(c2cccs2)C1n1cnc([N+](=O)[O-])c1 (stereo not drawn)	-15%
Cc1ccc(S(=O)(=O)NN=C2CCC(C(C)(C)C)CC2)cc1[N+](=O)[O-] (stereo not drawn)	-8%
O=[N+]([O-])c1cccc(C2Nc3cccc4cccc(c34)N2)c1	-19%
CCOC(=O)c1c(-c2cccc([N+](=O)[O-])c2)csc1NC(=O)CCCOc1ccccc1OC	?
Cc1ccc(N=C2NC(=O)c3cc([N+](=O)[O-])ccc32)cc1	-1%

Three of the entries above in order of their number in HPGD inh, falling.
SMILES	HPGD inh
CN(C)CC1CCCCC1OC(=O)c1ccc(Cl)cc1 (stereo not drawn)	4%
Cc1ccc(CNC(=O)c2nc3nc(C)cc(C)n3n2)cc1	-12%
CC(C)n1nc(C(=O)Nc2ccccc2N2CCOCC2)c2ccccc2c1=O	-13%

Some of the compounds tested; count on the stated rates, not on these rows.
